HIV Env fusion – HIV envelope-mediated fusion inhibition | HeLa-JRFL Env/CEM21 cell fusion, luciferase | inhibition, % at 12.3 µM | hit rate 1.1% among 360,000 | AID 651610;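 active means mean replicate inhibition score of at least 50 and every replicate individually at or above 50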;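 further: 0% = plate neutral controls and 100% = maraviroc near 300 nM; one replicate is shown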
Yeast UUG start – yeast start codon fidelity modulation | S. cerevisiae UUG-firefly luciferase reporter, luminescence/redox ratio | hit rate 0.13% among 350,000 | AID 602363 | activity score, % at 18.7 µM;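 active means replicate mean at a twofold rise or more, about +100% in these data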;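 further: firefly luciferase made from a UUG start codon reports start codon fidelity; reporter light over untreated wells divided by growth signal over untreated wells; some hits fall short of that in this replicate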
* marks the source's active call; other numbers are inactive results; [ ] = another dose, or the depositor's remark. Not all compounds are listed. The share of hits here may be higher or lower than overall.

SMILES	HIV Env fusion	Yeast UUG start
COc1ccc(S(=O)(=O)Nc2ccc3c(c2)C(=O)N([C@@H](C)CO)C[C@H](C)[C@@H](CN(C)C(=O)C2CCCCC2)OCCCC[C@H](C)O3)cc1	2[16.7 µM]	20
CCCC#Cc1cnc2c(c1)C(=O)N([C@@H](C)CO)C[C@@H](C)[C@@H](CN(C)C(=O)C1CCCCC1)O2	11[16.7 µM]	20
CNC[C@H]1OCCCC[C@H](C)Oc2ccc(NC(=O)Nc3ccc4c(c3)OCO4)cc2C(=O)N([C@H](C)CO)C[C@H]1C	-10[16.7 µM]	6
C[C@H]1CCCCO[C@H](CN(C)C)[C@@H](C)CN([C@@H](C)CO)C(=O)c2cc(NC(=O)c3ccncc3)ccc2O1	5[16.7 µM]	-12
C[C@@H]1CCCCO[C@H](CN(C)CC2CCCCC2)[C@H](C)CN([C@@H](C)CO)C(=O)c2cc(NS(=O)(=O)c3cn(C)cn3)ccc2O1	-10[16.7 µM]	-4
COc1ccc(CN(C)C[C@@H]2OCCCC[C@H](C)Oc3ccc(NC(=O)Nc4ccc(F)cc4)cc3C(=O)N([C@H](C)CO)C[C@@H]2C)cc1	-1[16.7 µM]	11
C[C@H]1CCCCO[C@H](CN(C)C(=O)Nc2ccc3c(c2)OCO3)[C@@H](C)CN([C@@H](C)CO)C(=O)c2cc(NC(=O)c3ccccc3)ccc2O1	-9[16.7 µM]	9
C[C@@H]1CCCCO[C@H](CN(C)Cc2ccccc2)[C@H](C)CN([C@@H](C)CO)C(=O)c2cc(NS(=O)(=O)c3ccc(F)cc3)ccc2O1	3[16.7 µM]	11
C[C@@H]1CCCCO[C@@H](CN(C)S(=O)(=O)c2cccs2)[C@H](C)CN([C@@H](C)CO)C(=O)c2cc(NC(=O)CCCN(C)C)ccc2O1	9[16.7 µM]	0
CCC(=O)N[C@@H]1CC[C@H](CC(=O)NCCN2CCCCC2)O[C@@H]1CO	9[16.7 µM]	3
COc1ccc(NC(=O)Nc2ccc3c(c2)C(=O)N([C@H](C)CO)C[C@H](C)[C@@H](CN(C)Cc2ccc(Cl)c(Cl)c2)OCCCC[C@H](C)O3)cc1	26[16.7 µM]	4
C[C@@H]1CCCCO[C@H](CN(C)C(=O)Nc2ccccc2)[C@@H](C)CN([C@H](C)CO)C(=O)c2cc(NS(=O)(=O)c3ccc(F)cc3)ccc2O1	-50[16.7 µM]	-2
Cn1cnc(S(=O)(=O)N[C@H]2C=C[C@H](CC(=O)NCC3CCCCC3)O[C@H]2CO)c1	8[16.7 µM]	-11
C[C@H](CO)N1C[C@H](C)[C@@H](CN(C)C(=O)CC2CC2)Oc2ncc(C#CC3CC3)cc2C1=O	-15[16.7 µM]	4
C[C@H]1CN([C@@H](C)CO)C(=O)Cc2cc(NS(C)(=O)=O)ccc2O[C@H]1CN(C)S(=O)(=O)c1ccccc1	-11[16.7 µM]	9
C[C@@H]1CN([C@H](C)CO)C(=O)c2cc(NS(=O)(=O)c3cn(C)cn3)ccc2O[C@@H](C)CCCCO[C@@H]1CN(C)C(=O)CCCN(C)C	1[16.7 µM]	5
CCCNC(=O)Nc1ccc2c(c1)C(=O)N(C)[C@H]1CC[C@@H](CC(=O)O)O[C@H]1CO2	22[16.7 µM]	-5
C[C@@H]1CN([C@@H](C)CO)C(=O)Cc2cc(NC(=O)C3CCCCC3)ccc2O[C@@H]1CN(C)Cc1ccc(-c2ccccc2)cc1	-31[16.7 µM]	10
C[C@H]1CN([C@@H](C)CO)C(=O)c2cccc(NS(=O)(=O)c3ccccc3)c2O[C@@H]1CN(C)C(=O)Nc1cccc2ccccc12	2[16.7 µM]	-4
C[C@@H]1CN([C@@H](C)CO)C(=O)c2cc(NC(=O)Nc3ccc(C(F)(F)F)cc3)ccc2O[C@@H](C)CCCCO[C@H]1CN(C)Cc1ccc(C(F)(F)F)cc1	42[16.7 µM]	-1
CC(C)=CCN(C(=O)C#Cc1ccccc1)[C@H](CO)c1ccccc1	28[16.7 µM]	14
CS(=O)(=O)Nc1ccc2c(c1)[C@@H]1C[C@@H](CC(=O)NCc3ccccc3)O[C@H](CO)[C@@H]1O2	-25[16.7 µM]	-9
CC(C)C#Cc1ccc2c(c1)O[C@@H](CN(C)C(=O)C1CC1)[C@H](C)CN([C@H](C)CO)S2(=O)=O	2[16.7 µM]	1
CNC[C@@H]1OCCCC[C@H](C)Oc2ccc(NS(C)(=O)=O)cc2C(=O)N([C@@H](C)CO)C[C@H]1C	9[16.7 µM]	-7
CNC[C@@H]1Oc2c(NC(=O)Nc3cccc4ccccc34)cccc2C(=O)N([C@@H](C)CO)C[C@H]1C	-2[16.7 µM]	-9
Cc1ccc(-c2ccc3c(c2)O[C@@H](CN(C)Cc2cccc(C(=O)O)c2)[C@H](C)CN([C@H](C)CO)S3(=O)=O)cc1	0[16.7 µM]	4
C[C@H](CO)N1C[C@H](C)[C@@H](CN(C)S(=O)(=O)c2cccs2)Oc2ccc(NS(C)(=O)=O)cc2CC1=O	21[16.7 µM]	12
C[C@@H]1CN([C@@H](C)CO)C(=O)c2cc(NS(C)(=O)=O)ccc2O[C@@H](C)CCCCO[C@H]1CN(C)C(=O)c1ccccc1	23[16.7 µM]	2
C[C@H]1CN([C@@H](C)CO)C(=O)c2cc(-c3ccc(F)cc3)cnc2O[C@@H]1CN(C)C(=O)Nc1ccccc1F	-1[16.7 µM]	10
CCCNC(=O)N(C)C[C@@H]1Oc2cc(Br)ccc2S(=O)(=O)N([C@H](C)CO)C[C@@H]1C	0[16.7 µM]	7

Ordered by the number under Yeast UUG start (largest number first): four from the list above.
SMILES	HIV Env fusion	Yeast UUG start
CC(C)=CCN(C(=O)C#Cc1ccccc1)[C@H](CO)c1ccccc1	28[16.7 µM]	14
C[C@H](CO)N1C[C@H](C)[C@@H](CN(C)S(=O)(=O)c2cccs2)Oc2ccc(NS(C)(=O)=O)cc2CC1=O	21[16.7 µM]	12
C[C@@H]1CN([C@@H](C)CO)C(=O)c2cc(NS(C)(=O)=O)ccc2O[C@@H](C)CCCCO[C@H]1CN(C)C(=O)c1ccccc1	23[16.7 µM]	2
CS(=O)(=O)Nc1ccc2c(c1)[C@@H]1C[C@@H](CC(=O)NCc3ccccc3)O[C@H](CO)[C@@H]1O2	-25[16.7 µM]	-9

Entries of single compounds from above. Order of screens: HIV Env fusion	Yeast UUG start
C[C@@H]1CN([C@@H](C)CO)C(=O)c2cc(NC(=O)Nc3ccc(C(F)(F)F)cc3)ccc2O[C@@H](C)CCCCO[C@H]1CN(C)Cc1ccc(C(F)(F)F)cc1 is listed with 42[16.7 µM]	-1
C[C@H]1CN([C@@H](C)CO)C(=O)Cc2cc(NS(C)(=O)=O)ccc2O[C@H]1CN(C)S(=O)(=O)c1ccccc1 is listed with -11[16.7 µM]	9
CNC[C@@H]1OCCCC[C@H](C)Oc2ccc(NS(C)(=O)=O)cc2C(=O)N([C@@H](C)CO)C[C@H]1C is listed with 9[16.7 µM]	-7
C[C@H](CO)N1C[C@H](C)[C@@H](CN(C)S(=O)(=O)c2cccs2)Oc2ccc(NS(C)(=O)=O)cc2CC1=O is listed with 21[16.7 µM]	12

The results go on.
SMILES	HIV Env fusion	Yeast UUG start
O=C(NCC[C@H]1CC[C@H](NC(=O)C2CCOCC2)[C@@H](CO)O1)c1ccc(F)cc1	-17[16.7 µM]	-8
Cc1ccc(S(=O)(=O)N2C[C@@H](O)COC[C@H]3O[C@H](CC(=O)NCc4ccc5c(c4)OCO5)CC[C@@H]32)cc1	14[16.7 µM]	48
N#C[C@@H]1[C@H](c2ccc(C3=CCCCC3)cc2)[C@H](CO)N1S(=O)(=O)c1cccc(F)c1	-29[16.7 µM]	-14
Cc1noc(C)c1NC(=O)Nc1ccc2c(c1)C(=O)N([C@H](C)CO)C[C@H](C)[C@H](CN(C)C(=O)c1ccccc1)OCCCC[C@@H](C)O2	11[16.7 µM]	8
O=C(C[C@@H]1CC[C@H](NC(=O)C2CCC2)[C@H](CO)O1)NCc1ccncc1	11[16.7 µM]	-4
C[C@@H]1CN([C@@H](C)CO)C(=O)Cc2cc(NC(=O)CCN3CCOCC3)ccc2O[C@@H]1CN(C)C(=O)Nc1ccc(C(F)(F)F)cc1	-12[16.7 µM]	-3
C[C@@H]1CCCCO[C@@H](CN(C)C(=O)NC2CCCCC2)[C@H](C)CN([C@@H](C)CO)C(=O)c2cc(NC(=O)Cc3ccccc3)ccc2O1	-7[16.7 µM]	0
COc1ccc(NC(=O)Nc2ccc3c(c2)C(=O)N([C@H](C)CO)C[C@@H](C)[C@@H](CN(C)Cc2ccc4c(c2)OCO4)OCCCC[C@@H](C)O3)cc1	-13[16.7 µM]	13
C[C@H]1CN([C@@H](C)CO)C(=O)c2cc(-c3ccccc3F)cnc2O[C@H]1CN(C)Cc1ccc(F)cc1	8[16.7 µM]	0
C[C@@H]1CN([C@H](C)CO)C(=O)c2cc(C#CC3CC3)cnc2O[C@H]1CN(C)C(=O)Nc1ccc(F)cc1	-14[16.7 µM]	18
CC(C)CC#Cc1ccc2c(c1)O[C@H](CN(C)Cc1ccc(F)cc1)[C@@H](C)CN([C@H](C)CO)S2(=O)=O	13[16.7 µM]	-1
CCCNC(=O)N(C)C[C@H]1Oc2cc(C#CC(C)C)ccc2S(=O)(=O)N([C@@H](C)CO)C[C@@H]1C	-42[16.7 µM]	11
C[C@@H]1CN([C@H](C)CO)C(=O)c2cc(-c3ccccc3F)cnc2O[C@@H]1CN(C)Cc1ccc(F)cc1	10[16.7 µM]	13
C[C@H](CO)N1C[C@H](C)[C@@H](CN(C)Cc2cccnc2)Oc2ncc(-c3ccncc3)cc2C1=O	6[16.7 µM]	-7
C[C@@H]1CCCCO[C@@H](CN(C)S(=O)(=O)c2ccc(F)cc2)[C@H](C)CN([C@H](C)CO)C(=O)c2cc(NC(=O)CCCN(C)C)ccc2O1	-3[16.7 µM]	23
COc1ccc(NC(=O)Nc2ccc3c(c2)C(=O)N([C@H](C)CO)C[C@H](C)[C@@H](CN(C)C(=O)NC2CCCCC2)OCCCC[C@@H](C)O3)cc1	47[16.7 µM]	-7
C[C@@H]1CN([C@H](C)CO)C(=O)c2cc(NC(=O)Nc3ccc4c(c3)OCO4)ccc2O[C@@H](C)CCCCO[C@@H]1CN(C)CC1CCCCC1	-5[16.7 µM]	-2
C[C@H]1CN([C@@H](C)CO)C(=O)c2cccc(NC(=O)c3nc4ccccc4s3)c2O[C@H]1CN(C)Cc1ccc(-c2ccccc2)cc1	35[16.7 µM]	8
C[C@@H]1CN([C@@H](C)CO)C(=O)Cc2cc(NC(=O)NC3CCCCC3)ccc2O[C@@H]1CN(C)C(=O)Nc1ccccc1	-3[16.7 µM]	4
C[C@H]1CN([C@@H](C)CO)C(=O)Cc2cc(NC(=O)C3CCCCC3)ccc2O[C@H]1CN(C)S(=O)(=O)c1cn(C)cn1	-25[16.7 µM]	-6
COc1ccc(CN(C)C[C@@H]2OCCCC[C@@H](C)Oc3ccc(NS(=O)(=O)c4cn(C)cn4)cc3C(=O)N([C@H](C)CO)C[C@H]2C)cc1	-82[16.7 µM]	6
Cc1noc(C)c1S(=O)(=O)Nc1ccc2c(c1)C(=O)N([C@@H](C)CO)C[C@H](C)[C@H](CN(C)S(=O)(=O)c1cn(C)cn1)O2	-16[16.7 µM]	-6
COc1cc(CO)cc(I)c1O[C@H]1C=C(C(=O)NCCO)C[C@@H](NC[C@@H]2CCCO2)[C@@H]1O	-5[16.7 µM]	12
CC(C)NC(=O)Nc1ccc2c(c1)C(=O)N([C@@H](C)CO)C[C@@H](C)[C@H](CN(C)Cc1ccccc1)O2	0[16.7 µM]	-8
C[C@H]1CN([C@@H](C)CO)S(=O)(=O)c2ccc(C#CCC3CCCC3)cc2O[C@@H]1CN(C)C(=O)c1cnccn1	32[16.7 µM]	41
CC(C)c1cn(CC[C@H]2CC[C@@H](NS(=O)(=O)c3ccc(Cl)cc3)[C@H](CO)O2)nn1	0[16.7 µM]	6
C[C@@H]1CCCCO[C@@H](CN(C)C(=O)Nc2ccc3c(c2)OCO3)[C@@H](C)CN([C@@H](C)CO)C(=O)c2cc(NC(=O)Nc3ccc(F)cc3)ccc2O1	-36[16.7 µM]	-10
COCC(=O)Nc1ccc2c(c1)C(=O)N(C)[C@H]1CC[C@@H](CC(=O)NCCc3ccccc3)O[C@H]1CO2	8[16.7 µM]	-2
CN1CCN(C(=O)C2=C[C@@H](C3CC3)C[C@@H](OCCCCO)O2)CC1	23[16.7 µM]	7
CCC(=O)N1C[C@@H](C)[C@H](OC)CN(C)C(=O)c2ccc(NC(=O)C3CCCCC3)cc2OC[C@@H]1C	5[16.7 µM]	3
CCC(=O)Nc1ccc2c(c1)C(=O)N(C)[C@@H]1CC[C@@H](CC(=O)NCCN3CCCCC3)O[C@H]1CO2	5[16.7 µM]	-5
C[C@@H]1CN([C@H](C)CO)S(=O)(=O)c2ccc(C#CC3CCCCC3)cc2O[C@H]1CN(C)Cc1cccnc1	24[16.7 µM]	5
CC(C)NC(=O)N[C@H]1C=C[C@@H](CC(=O)N2CCCCC2)O[C@@H]1CO	-7[16.7 µM]	-11
C[C@H]1CCCCO[C@H](CN(C)C)[C@@H](C)CN([C@@H](C)CO)C(=O)c2cc(NC(=O)CCCCCC(=O)Nc3ccccc3N)ccc2O1	11[16.7 µM]	1
COc1ccccc1NC(=O)N[C@@H]1CC[C@@H](CCNS(=O)(=O)c2ccc(F)cc2)O[C@@H]1CO	18[16.7 µM]	19
C[C@H]1CN([C@@H](C)CO)S(=O)(=O)c2ccc(C#Cc3cccc(F)c3)cc2O[C@@H]1CN(C)C	-6[16.7 µM]	107*

Screens (PubChem BioAssay)
